# TAR Tat displ = HIV-1 TAR-Tat binding disruption. z-score (concentration not given with the values). 0.6% of 100,000 active. HIV-1 TAR RNA, Tat peptide displacement FRET; hits give high values;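 further: score is relative to mean and SD of negative controls; some compounds called inactive have numbers as strong as hits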
# CDC25B CDK2 inh = human CDC25B-CDK2/CyclinA binding inhibition; P30305+P24941; 0.72% of 94,000 active; z-score (concentration not given with the values); HTRF CDC25B-CDK2/CyclinA binding, anti-His/anti-Flag; hits give high values;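 further: score is relative to mean and SD of negative controls; strong numbers were not always called active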
# Numbers without * were called inactive; . = not tested or not shown.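 How the source made its calls: active means z-score from 3 up in half or more of its runs; inactive means the rest.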 Rows were taken by chance. Share with any hit: about 0.94%.
# The line under a structure holds: CDC25B CDK2 inh, TAR Tat displ
> CCOc1ccc(/C(O)=C2\C(=O)C(=O)N(c3nccs3)C2c2cccc(Br)c2)cc1 (configuration not stated)
  -2.4, -5.4
> c1ccc2sc(NC3=NCN(CCN4CCOCC4)CN3)nc2c1
  -1.7, .
> CCOC(=O)c1sc(-n2[nH]c(C)c(Cc3ccc(Cl)cc3)c2=O)nc1C
  -1.5, -0.31
> O=C(NCCN1CCNC1=O)c1ccc2nccnc2c1
  -0.68, .
> Cc1cccc(Cl)c1NC(=S)N1CCCC1
  -0.99, .
> Cc1ccc2ncc(C(=O)NCCCOC(C)C)c(=O)n2c1
  -2.1, 2
> CCCCSc1ncc(C(=O)OCC)c(N)n1
  ., 2.1
> O=c1c(Cl)c(N2CCN(c3cccc(Cl)c3)CC2)cnn1-c1nc2ccccc2s1
  -0.87, -0.2
> CC(=O)N1CCOc2ccc(S(=O)(=O)N3CCCc4ccccc43)cc21
  -0.62, 0.66
> NC(=O)c1ccc2c(c1)C1C=CCC1C(c1ccc(Cl)cc1)N2 (configuration not stated)
  1.1, -2.3
> Cc1oc2ncnc(N3CCCCC3)c2c1C(=O)NCCN1CCCC1
  ., -1.9
> O=C(Cn1cc(S(=O)(=O)Cc2ccccc2Cl)c2ccccc21)N1CCc2ccccc21
  ., -1
> COc1ccc(N2C(=O)C3CCCN3C2c2ccc(C(C)C)cc2)cc1 (configuration not stated)
  -0.51, 1
> COc1ccc(O)c(C2=Nc3ccccc3N=C(c3ccco3)C2)c1
  -2.5, 1.3
> COc1ccc(C2SC[C@H]3C(=O)N(c4ccccc4)C(=S)N23)cc1 (some centres not stated)
  -2.5, .
> CCC(C(=O)N1CCN(c2ccc(F)cc2)CC1)n1sc2ccccc2c1=O (configuration not stated)
  -1.8, 2.3
> O=c1c2cccnc2n(Cc2ccccc2F)c(=O)n1Cc1ccccc1Cl
  -0.49, -0.12
> CCOc1cc(-c2ccc3c(c2)OCO3)cc(=O)c2c(C)oc(C)c12
  -0.62, 0.42
> CCOc1ccc(-c2noc(-c3nnn(-c4ccccc4)c3N)n2)cc1
  ., 0.77
> CCOC(=O)c1sc2ccccc2c1S(=O)(=O)N1CCc2ccccc21
  ., -0.49

# Following part:
# The line under a structure holds: CDC25B CDK2 inh, TAR Tat displ
> CNC(=O)c1cnc2sc(N3CCCC3)nn2c1=O
  ., 0.23
> CN[C@@H]1C(OC2[C@H](O[C@H]3[C@H](O)[C@@H](O)[C@H](N=C(N)N)[C@@H](O)[C@@H]3N=C(N)N)OC(C)[C@]2(O)CO)OC(CO)C(O)C1O (some centres not stated)
  ., -0.12
> CCCCn1cc2c(c1-c1ccc(Br)cc1)c(=O)n(C)c(=O)n2C
  -0.44, 1.3
> CC1=C(c2ccc(C)cc2)S(=O)(=O)N=C1N1CCN(C2CCCCC2)CC1
  -0.62, -0.72
> Cc1ccc(-c2onc(C)c2C)cc1S(=O)(=O)N1CCN(c2ccc(Cl)cc2)CC1
  ., 0.45
> CCNC(=S)N/N=C/c1cc(OC)c(OC)c(OC)c1
  -0.66, .
> Cc1cc(NC(=O)c2noc(C(C)C)c2[N+](=O)[O-])n(-c2ccccc2)n1
  2.6, 1.2
> CCN(Cc1ccccc1)S(=O)(=O)c1cc2[nH]c3c(c2cc1C)C(=O)CC(C)(C)C3
  ., 0.52
> COCCNc1ncnc2c1cnn2-c1ccccc1
  ., 0.4
> O=C(c1cc2c(s1)-c1ccccc1S(=O)(=O)C2)N1CCN(c2ncccn2)CC1
  -3.1, 1.2
> O=C(COc1ccc(Cl)cc1)N1CCN(c2ncc(C(F)(F)F)cc2Cl)CC1
  1.1, .
> CCc1c(C)nc2ncnn2c1Nc1cc(C)ccc1C
  -1.1, 1.1
> COc1ccc(OC)c(-n2cc3c(c2-c2ccc(Br)cc2)c(=O)n(C)c(=O)n3C)c1
  -1.6, -3.4
> CCOc1cc(C2NC(C(=O)O)CS2)ccc1OCc1cccc(C)c1 (configuration not stated)
  -1.8, 0.43
> Cc1ccc(Nc2cc(-n3nc(C)cc3C)ncn2)cc1
  -1.4, 1.9
> N#Cc1c(-c2ccco2)nc(SCC(=O)Nc2ccccc2Cl)[nH]c1=O
  -2.1, -0.59
> NC(=O)CN1C(=O)CSc2ccc(C(=O)N3CCCCC3)cc21
  ., 1.6
> COc1ccc(OC)c(NS(=O)(=O)c2ccc(-c3cnc(C)o3)cc2)c1
  ., 0.74
> O=C(O)c1cccnc1C(=O)O
  -2.3, 0.86
> CC(C)NS(=O)(=O)c1ccc2c(c1)C(C)(C)C(=O)N2C
  ., 1.8

# Next part
# The line under a structure holds: CDC25B CDK2 inh, TAR Tat displ
> OCCn1c(-c2ccc(Br)cc2)cn2c3ccccc3nc12
  -1.1, 1.6
> COc1cc(C)ccc1OCCSc1nc(-c2ccccc2)nc2cc(=O)[nH]n12
  ., 0.31
> Cc1ccc(Nc2nc3ccccc3n3c(N)nnc23)cc1C
  -2.6, 0.09
> CN(CCCNC(=O)C1CCCN(c2nnc(N3CCCC3=O)s2)C1)C1CCCCC1 (configuration not stated)
  ., 1.3
> C=CCn1c(-c2ccc(OC)cc2)nc2ccccc21
  -0.38, 0.97
> CC(C)(C)c1nc(-c2ccc(C(F)(F)F)cn2)no1
  -1.6, .
> CCNC(=O)C1Cc2cc(S(=O)(=O)N3CCCC3)ccc2N1C(C)=O (configuration not stated)
  ., 0.15
> CN1CCN(CCCNc2c(N)c(=O)oc3ccccc23)CC1
  -0.18, .
> Cn1c(SCC(=O)Nc2nc(-c3ccccc3)cs2)nnc1-c1cc2ccccc2o1
  ., 1.6
> CSc1nnc2c(n1)OC(C(=O)c1ccccc1)Nc1ccccc1-2 (configuration not stated)
  0.52, -0.14
> Cc1ccc2oc3c(c(=O)c2c1)C(c1ccccc1F)N(c1ccccn1)C3=O (configuration not stated)
  -1.2, 0.87
> CCOC(=O)Cn1cc(C(=O)OCC)c(=O)c2ccc(C)nc21
  ., -0.29
> CCn1nc(-n2cnnc2)c(NS(=O)(=O)c2ccc(Cl)cc2)c1C
  -1.6, -0.58
> S=C(N/N=C/c1[nH]ncc1Br)Nc1ccc(Cl)cc1
  -1.4, .
> Cc1c(S(=O)(=O)N2CCC(N3CCCCC3)CC2)cc(C(=O)N2CCCCC2)n1C
  ., 0.7
> O=C(O)Cc1csc(NC(=O)CSc2nc3ccccc3s2)n1
  -1.3, .
> COc1cc(NC(=O)c2cc3ccccc3cc2NS(=O)(=O)c2ccccc2)c2ncccc2c1
  -0.48, .
> CCc1ccccc1NS(=O)(=O)c1c(C)nc2scc(C)n2c1=O
  -0.24, 0.55
> Cc1ncc(CSC(=S)N2CCSCC2)c(CO)c1O
  -3, .
> CCN(CC)Cc1c(O)ccc2c(=O)c(-c3ccc(Cl)cc3)coc12
  -0.38, 0.46

# Continued.
# The line under a structure holds: CDC25B CDK2 inh, TAR Tat displ
> Cn1c(=O)c2cn3c4ccccc4nc(-c4ccccc4)c3c2n(C)c1=O
  0.63, 0.23
> COc1ccc(-c2nc3c(c(=O)[nH]2)Cc2cc(Cl)ccc2O3)cc1OC
  0.1, 2.3
> COc1ccc(C2C(C(=O)OCC(C)C)=C(C)NC3=C2C(=O)CC(c2ccccc2)C3)c(OC)c1 (configuration not stated)
  -1, 1.5
> CCOC(=O)N1CCC(NC(=O)C2CCN(C(=O)c3cc4sccc4n3CC)CC2)CC1
  -1.7, -0.7
> Cc1cc(=O)nc2c3ccccc3n(C(C)C(=O)NC3CCC(C)CC3)n12 (configuration not stated)
  -0.51, -1.3
> CC(C)Sc1nnc(NC(=O)C(=O)c2c[nH]c3ccccc23)s1
  -1.5, 2.2
> Cc1nc2c(c(C)nn2C(C)(C)C)c(C)c1CCC(=O)N1CCOCC1
  -0.52, 0.28
> CCC(NS(=O)(=O)c1ccc(F)cc1)c1c(-n2cccc2)sc2c1CCN(C)C2 (configuration not stated)
  0.21, -7.1
> Cc1ccc(Sc2cc(N3CCOCC3)c(C)cc2[N+](=O)[O-])cc1
  -2.4, .
> Cc1[nH]c2ccccc2c1C1(O)C(=O)N(Cc2ccc(Cl)cc2)c2ccccc21 (configuration not stated)
  1.1, -3.1
> CCOC(=O)c1ccccc1C(=O)c1ccc(N(C)C)cc1
  -1, .
> O=C1CCSc2ccc(S(=O)(=O)N3CCC(c4ccccc4)C3)cc2N1 (configuration not stated)
  ., 0.78
> CSc1nc2ccc3nc(NC(=O)c4ccc(S(=O)(=O)N5CCCC5)cc4)sc3c2s1
  0.35, .
> O=C1CC(c2ccc3c(c2)OCO3)C2=C(CCCC2=O)N1 (configuration not stated)
  -1.1, 2.5
> COc1ccc(NS(=O)(=O)c2ccc3c(c2)CCCC(=O)N3)cc1
  ., 1.5
> CN(CCNS(=O)(=O)c1csc(C(N)=O)c1)C1CCCCC1
  ., 0.73
> O=C1CSC(c2cn(-c3ccccc3)nc2-c2ccccc2)N1CCO (configuration not stated)
  -0.39, .
> Cc1onc(C(=O)NCC2CCCO2)c1[N+](=O)[O-] (configuration not stated)
  -0.88, 0.1
> CCOc1ccc(-c2cn3nc(CC(C)C)sc3n2)cc1
  -0.09, 1.7
> O=C1CN(C(=O)c2cc3ccccc3oc2=O)C(c2ccccc2)c2cc(Br)ccc2N1 (configuration not stated)
  0.14, .

# Entries from the list above that contain a furan ring, fused or not, in the order listed:
# The line under a structure holds: CDC25B CDK2 inh, TAR Tat displ
> Cc1oc2ncnc(N3CCCCC3)c2c1C(=O)NCCN1CCCC1
  ., -1.9
> COc1ccc(O)c(C2=Nc3ccccc3N=C(c3ccco3)C2)c1
  -2.5, 1.3
> CCOc1cc(-c2ccc3c(c2)OCO3)cc(=O)c2c(C)oc(C)c12
  -0.62, 0.42
> N#Cc1c(-c2ccco2)nc(SCC(=O)Nc2ccccc2Cl)[nH]c1=O
  -2.1, -0.59
> Cn1c(SCC(=O)Nc2nc(-c3ccccc3)cs2)nnc1-c1cc2ccccc2o1
  ., 1.6

# Further compounds
# The line under a structure holds: CDC25B CDK2 inh, TAR Tat displ
> Cc1ccc(C2Nc3cccc4cccc(c34)N2)cc1
  -1.9, 6.7*
> Cc1cccc(-c2noc(-c3ccco3)n2)c1
  -0.6, 0.14
> CCCN(C1=NC2CS(=O)(=O)CC2S1)c1ccc(C(=O)OCC)cc1 (configuration not stated)
  -2.5, 0.82
> CC1CCN(C(=O)C2CCC(Cn3c(=O)c4sccc4n(CC(=O)NC(C)C)c3=O)CC2)CC1 (configuration not stated)
  ., 0.46
> CC1=C(C(=O)OC(C)C)C(c2ccccc2Cl)C2=C(CC(c3cccs3)CC2=O)N1 (configuration not stated)
  -0.94, -0.21
> CC(C)C(=O)N1CCc2cc(CN)ccc21
  0.65, 0.9
> COc1ccc(NS(=O)(=O)c2ccc(-c3cc(C)[nH]n3)s2)cc1
  ., 0.53
> Cc1ccc(-c2noc(CN(C)S(=O)(=O)c3ccccc3)n2)cc1
  -1.6, 1.3
> O=C(NC1CC1)c1cnn2c3c(cnc12)CCCC3
  ., -1.1
> CC(C)COC(=O)Cn1nnc2sc3c(c2c1=O)CCC(C)C3 (configuration not stated)
  0.6, 2.5
> CCn1c(=O)n(CC)c2cc(NC(=O)CSc3nnc(-c4cc5ccccc5o4)n3C)ccc21
  ., 1.6
> O=C(Cc1noc2ccccc12)N1CCN(c2cccc(Cl)c2)CC1
  -1.7, 0.94
> CCN(c1cccc(C)c1)S(=O)(=O)c1c(C)nc2sc(C)cn2c1=O
  ., 0.53
> COc1ccc(OC)c(N(C)c2c(-c3ccccc3)c(=O)c2=O)c1
  ., 2.4
> c1ccc(CNc2nc(NCc3ccccc3)c3ccccc3n2)cc1
  0.06, .
> COc1ccc(C2CC(c3ccc(C)cc3)Nc3nnnn32)cc1OC (configuration not stated)
  ., 3.7
> COc1ccc(-n2c(Cc3ccccc3)nnc2SCc2nc(-c3cccs3)no2)cc1
  0.65, 2.5
> Cc1cccc(NS(=O)(=O)c2ccc3c(c2)CC(C)N3C(=O)C2CC2)n1 (configuration not stated)
  ., 1.7
> O=S(=O)(NCCN1CCOCC1)c1ccc(F)cc1
  -0.88, 0.55
> CC1=C(c2ccc(F)cc2)S(=O)(=O)NC1=NCCCN1CCN(C2CCCCC2)CC1
  ., 0.04

# The listing continues:
# The line under a structure holds: CDC25B CDK2 inh, TAR Tat displ
> C#CCOc1ccc2c(C)cc(=O)oc2c1
  -1.3, .
> O=C(CCc1nc(-c2cccs2)no1)N1CCN(c2ccccc2)CC1
  -0.43, 2.5
> CC(=O)N1c2ccc(S(=O)(=O)N3CCCCC3)cc2CC1C(=O)NC1CCCC1 (configuration not stated)
  ., -0.38
> CCCSc1nnc2nc(C)cc(C)n12
  -2.1, -0.85
> CCOc1ccccc1C1Nc2ccccc2-n2cc3c(=O)n(C)c(=O)n(C)c3c21 (configuration not stated)
  -1.2, 1
> COCCNc1nc(NCc2cc(OC)ccc2OC)c2cnn(C)c2n1
  ., 1.3
> Cc1cccn2cc(-c3ccc(NS(=O)(=O)c4ccc(Br)cc4)cc3)nc12
  -0.71, 0.72
> Cc1ccc(-n2nc(C)c3c(C(F)(F)F)cc(-c4ccco4)nc32)cc1
  -1, -2.9
> CCOc1ccc(-c2nc3c(C#N)c[nH]n3c2NC2CCC(C)CC2)cc1 (configuration not stated)
  -2.6, -1.9
> O=C(CSc1ccc2nnc(-c3ccccc3)n2n1)N1CCc2ccccc21
  -0.72, .
> CCC(=O)Nc1sc2c(c1C(=O)NC)CCC2
  ., 0.19
> Fc1ccccc1-c1noc(NC2CCCC2)n1
  ., -0.07
> O=C(Nc1cccnc1)c1cc2c(=O)[nH]c3ccccc3c2s1
  -0.87, .
> Cc1cccc(-c2noc(CN(C)S(=O)(=O)c3ccc(Br)cc3)n2)c1
  -0.49, 0.83
> Cc1ccc(S(=O)(=O)c2cn(C)c3cc(F)c(F)cc3c2=O)cc1
  -1.7, -0.67
> Cc1ccc(CN2N=NC3C(=O)N(c4ccc(Cl)cc4)C(=O)C32)cc1 (configuration not stated)
  1.7, 0.87

# Copied from the list.
# Cc1oc2ncnc(N3CCCCC3)c2c1C(=O)NCCN1CCCC1 in TAR Tat displ shows -1.9
# O=C(NC1CC1)c1cnn2c3c(cnc12)CCCC3 in TAR Tat displ shows -1.1
